MARV entry inh: blocks Marburg virus binding to or entry into cells | Marburg virus pseudotyped entry inhibition, cell reporter; control for the full effect not named in the record; about a third of the inactives were read at about 46 µM | AID 540276 | Potency, µM (series often up to 37.8 µM), for the others: top-dose activity change, negative = inhibition, actives largely listed as inhibitors | hit rate 1.8% among 300,000; active = well fitted inhibition curve with a large enough effect; inconclusive = small, poorly fitted or top-dose-only effect, or effect the other way; inactive = flat fitted curve, though single readings scatter; tested in HEK293 cells; about a fifth of its hits are not listed in these tables; also: % is scaled to controls: 0 for no effect and ±100 for the full control effect; luciferase read-out
Cruzain inh noDet: cruzain (T. cruzi) inhibition without detergent. P25779. purified cruzain, Z-FR-AMC fluorescence, no detergent. Potency, µM, without a hit: max response, negative = inhibition, usual class: inhibitors. hit rate 2.3% among 200,000;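 also: plate controls were enzyme without inhibitor for no effect and buffer without enzyme for full effect; nearly all actives have a fitted effect of over 40% in size; top concentration of the series not given in the record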
Target sequence (P25779 123-467 limits assumed): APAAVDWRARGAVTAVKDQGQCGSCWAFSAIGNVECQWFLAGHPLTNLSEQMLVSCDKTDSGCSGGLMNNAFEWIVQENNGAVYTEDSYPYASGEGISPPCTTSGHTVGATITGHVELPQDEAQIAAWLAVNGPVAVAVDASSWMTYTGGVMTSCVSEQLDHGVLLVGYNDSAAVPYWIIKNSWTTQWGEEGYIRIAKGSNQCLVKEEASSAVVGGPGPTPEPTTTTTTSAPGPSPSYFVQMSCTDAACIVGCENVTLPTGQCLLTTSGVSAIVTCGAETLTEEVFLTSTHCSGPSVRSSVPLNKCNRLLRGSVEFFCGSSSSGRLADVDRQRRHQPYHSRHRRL
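Purified cruzain at 1.5 nM, pre-incubated 15 min with compound at room temperature in 100 mM sodium acetate pH 5.5, 5 mM DTT, 0.00005% Triton X-100. Reaction started with 2 uM Z-FR-AMC; AMC fluorescence increase over 60 s gives rate.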
Cruzain inh Det: blocks cruzain activity in presence of Triton detergent. purified cruzain, Z-FR-AMC fluorescence, 0.01% Triton. Potency, µM, inactives show max response, negative = inhibition, actives largely listed as inhibitors. hit rate 0.43% among 200,000. AID 1478;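 also: plate controls were neutral wells for no effect and buffer without enzyme for full effect; nearly all actives have a fitted effect of over 40% in size; top concentration of the series not given in the record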
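Sodium acetate buffer (100 mM, pH 5.5) containing 5 mM DTT and 0.01% Triton X-100 hosted 1.5 nM cruzain and test compound for 15 min at room temperature. Cleavage of 2 uM Z-FR-AMC was then tracked by fluorescence.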
NS1 function inh: inhibitors of influenza NS1 protein function; S. cerevisiae slowed by influenza A NS1, growth recovery by OD600; Potency, µM (top dose mostly 46.1 µM), without a hit: at the top dose activity, positive = more growth; hit rate 0.4% among 270,000; AID 2326; active means well fitted rising curve with a large enough effect; inconclusive means small, poorly fitted or top-dose-only effect; inactive means no such curve, though single readings can be large or run the other way; also: nearly all actives have a fitted effect of over 50% in size
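S. cerevisiae expressing influenza A NS1, grown in glucose, washed, then diluted 1:100 into pH 6.0 -URA galactose medium with 23 nl compound. Growth recovery read as OD600; NS1-free strain serves as control.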
LASV entry inh: blocks Lassa virus binding to or entry into cells; Lassa virus pseudotype entry inhibition, cell reporter; control for the full effect not named in the record; Potency, µM (highest dose often 37.9 µM), inactives show top-dose activity change, negative = inhibition, most hits filed as inhibitors; hit rate 1.2% among 300,000; AID 540256; active means well fitted inhibition curve with a large enough effect; inconclusive means small, poorly fitted or top-dose-only effect, or effect the other way; inactive means flat fitted curve, though single readings scatter; tested in HEK293 cells; also: % is scaled to controls: 0 for no effect and ±100 for the full control effect; nearly all actives have a fitted effect of over 50% in size; luciferase read-out
SARS PLP yeast: SARS-CoV PLP inhibition in yeast; S. cerevisiae expressing SARS-CoV PLpro, growth rescue; control for the full effect not named in the record; Potency, µM (titrated, usually from 32.9 µM), without a hit: at the highest dose activity, positive = growth rescue; hit rate 0.19% among 330,000; AID 485353; active means well fitted rising curve with a large enough effect; inconclusive means small, poorly fitted or top-dose-only effect; inactive means no such curve, though single readings can be large or run the other way; also: 0% is about no effect; nearly all actives have a fitted effect of over 55% in size; growth read by luminescence after 48 h
RE007 growth inh: less growth of the S. pombe RE007 Vpr strain | hit rate 0.21% among 360,000 | S. pombe RE007 Vpr strain, BacTiter-Glo ATP luminescence, 24 h; control for the full effect not named in the record | Potency, µM (top dose mostly 92.2 µM), for inactives: at the top dose activity change, negative = less growth; active = well fitted falling curve with a large enough effect; inconclusive = small, poorly fitted or top-dose-only effect; inactive = no such curve, though single readings can be large or run the other way;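 also: % is scaled to controls: 0 for no effect and ±100 for the full control effect; nearly all actives have a fitted effect of over 50% in size; the assay follows cell death caused by Vpr and the record does not say whether a fall means rescue or toxicity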
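Fission yeast RE007 carrying one integrated HIV-1 vpr copy, seeded at OD 0.01 in PMG+AL medium with 23 nL pinned compound. Grown 24 h at 30 degrees; viability read by BacTiter-Glo luminescence after 5 min.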
2A StopGo: FMDV 2A StopGo reporter, luciferase signal | human cells with a luciferase reporter of 2A StopGo recoding; control for the full effect not named in the record | Potency, µM (doses to about 57.9 µM), for the others: at the highest dose signal change, negative = less light | hit rate 1.2% among 410,000; active = well fitted falling curve with a large enough effect; inconclusive = small, poorly fitted or top-dose-only effect; inactive = no such curve, though single readings can be large or run the other way; tested in HEK293T cells; also: % is scaled to controls: 0 for no effect and ±100 for the full control effect; nearly all actives have a fitted effect of over 45% in size; luciferase light after 4 h
The depositor's hits bear a star; u = inconclusive; x = no result given; & = joins results of further samples; [ ] = remark or other dose. Unless noted, calls follow the shape of the dose curve; as a rule, active = well fitted curve in the direction sought with a large enough effect; inconclusive = small, poorly fitted or top-dose-only effect, or another doubt; inactive = no such curve, though single readings can be large; an effect the other way counts as inactive or inconclusive. Potency is read from the fitted curve at half-maximal effect. Not a hit list, and some 4.8% of all compounds hit somewhere here.

Molecule,MARV entry inh,Cruzain inh noDet,Cruzain inh Det,NS1 function inh,LASV entry inh,SARS PLP yeast,RE007 growth inh,2A StopGo
O=Cc1cn(-c2ccccc2)nc1-c1cc2cc(O)ccc2oc1=O,9%,1%,-4.8%,3%,-21%,-2%,9%,-3%
COc1ccccc1Nc1nc(N2CCOCC2)nc(N2CCOCC2)n1,4µM*,x,x,2%,-9%[46.1 µM],-5%,0%,-6%&-26%
CCOC(=O)Nc1ccc2c(CN3C(=O)NC4(CCCC4)C3=O)cc(=O)oc2c1,24%&24%,-8%,-23%,9%,3%,3%,6%,-6%
CCN(CC)S(=O)(=O)c1cccc(C(=O)NCCCn2ccnc2)c1,x,x,x,5%,x,0%,0%,-2%
Cc1nc(Cl)sc1C(=O)Nc1ccc(C(C)(C)C)cc1,1%[46.1 µM],x,x,-41%,18%[46.1 µM],-10%,-7%,23%
Cc1cc(C)c2oc(C(=O)NCc3ccccc3)cc(=O)c2c1,x,x,x,-2%,x,-2%,7%,-17%
CCN(CC)C(=O)Cn1c(=O)n(Cc2ccc(C(=O)NCc3ccccc3Cl)cc2)c(=O)c2ccccc21,u,20%,-0.9%,x,-19%[46.1 µM],x,x,33%[activator]
Cc1cc(C)c(NC(=O)NC(=O)c2cccc(F)c2)c(C)n1,25%,5%,1.9%,-3%,12%,7%,-1%,31%[activator]
COC1=CC(=O)OC12CCCCC2,2%,-9%,0.7%,-3%,15%,-1%,-9%,-10%
COc1ccc(NC(=O)CSc2nnc(-c3cccnc3)n2Cc2ccco2)c(OC)c1,-3%&-3%,11%,-1.3%,-5%,-16%,-6%,-1%,-3%
Cc1ccc(SCC(=O)OCC(=O)NCCCc2ccccc2)cc1,14%,x,x,x,6%,1%,-15%,-7%
CN(Cc1ccccc1F)c1ccc(S(=O)(=O)N2CCCC2)cn1,-2%[46.1 µM],x,x,x,5%,-1%,4%,u
O=C(/C=C/c1cc2c(cc1Br)OCO2)NCc1ccc(Cl)cc1,7%,-3%,-6.0%,-10%,2%,-8%,-9%,16%
COc1ccc(C(C(=O)NC2CCCC2)N(C(=O)c2ccco2)c2ccc3c(c2)OCO3)cc1OC (stereo not drawn),-1%&-1%,10%,1.4%,-10%,-2%,-8%,0%,12%
Cc1cc(C)cc(NC(=O)CS(=O)(=O)c2cccc3nsnc23)c1,-16%[46.1 µM],x,x,18%,13%,3%,-12%,7%
O=C(CSc1nnc(-c2ccco2)n1CC1CCCO1)c1ccc(F)cc1 (stereo not drawn),u,-6%,-5.4%,5%,8%,12%,-6%,u
C=C(C)CN1C(=O)c2ccccc2C1=O,-2%,-1%,5.0%,-8%,-3%,3%,0%,x
COc1ccc(NC(=O)C2Cc3cccc(OC)c3O/C2=N\O)cc1 (stereo not drawn),x,x,x,0%,x,0%,1%,-1%
O=C(Nc1ccc(O)cc1)c1ccc2c(c1)C(=O)N(Cc1ccccc1)C2=O,1%,x,x,6%,2%,-4%,-14%,-30%
Cc1[nH]c2ccccc2c1C1(O)C(=O)N(C(C)C)c2ccccc21 (stereo not drawn),14%,5%,2.3%,-10%,-1%,6%[6.58 µM],-1%[3.69 µM],2%
O=C(CSc1ccc(C(F)(F)F)cc1[N+](=O)[O-])NCCOc1ccccc1,u,-13%,-8.4%,-5%,11%,-23%,3%,0%
CCOc1cc(CNc2ccc(CNc3ncn[nH]3)cc2)ccc1OCc1ccccc1,u,19%,-4.9%,15%,0%,7%,x,u
Cc1cc(C)n2cc(CSc3nnnn3C)nc2n1,-3%,-12%,1.0%,-2%,-1%,1%,-17%,-4%
COc1ccccc1N1CCN(c2c(CN3CCCC3)c(=O)oc3ccccc23)CC1,u,-12%,-3.2%,x,-16%[46.1 µM],x,x,-21%
COc1cccc(C2CC(=O)NC(SC)=C2C#N)c1 (stereo not drawn),x,-10%,2.6%,-5%,x,-6%,-18%,-13%
CCN1CCN(C(=O)c2ccc(CSc3ccc(C)cc3)cc2)CC1,u,9%,-0.6%,-2%,u,-1%,-6%,x
O=C(NCCCn1ccnc1)c1cccc(Br)c1,8%[46.1 µM],x,x,5%,8%[46.1 µM],1%,-10%,-15%
CC(NS(=O)(=O)c1ccc(Cl)cc1)C(=O)NCc1ccco1 (stereo not drawn),8%,-2%,-0.2%,2%,4%,-18%,-7%,x
COc1ccc(CCNCc2sccc2C)cc1OC,-4%[46.1 µM],x,x,x,3%[46.1 µM],0%,-3%,-12%
COc1cc(OC)cc(C(=O)Nc2cccc(C(C)=O)c2)c1,13%,2%,2.5%,-12%,22%,0%,12%,0%
Cc1ccc(S(=O)(=O)NCCC2=CCCCC2)cc1,9%,x,x,x,-24%,3%,-7%,83%[activator]
O=C(c1ccc(F)cc1)N1CCC2(CC1)OCCO2,x,x,x,0%,x,2%,2%,-6%
CCn1c(O)c(/C=N/N=C2CCCC2)c2ccc(C3=NNC(=O)CC3)cc21,11%,2%,-1.3%,4%,-10%,18%,11%,-5%
COc1ccc2c(c1OC)C(=O)OC2C/C(=N\NC(N)=O)c1ccccc1 (stereo not drawn),5%[46.1 µM],x,x,x,15%[46.1 µM],-5%,1%,44%[activator]
CC(C)c1ccc(C(=O)N/N=C/c2cccc(Cl)c2Cl)cc1,0%[46.1 µM],u,-3.9%,-13%,10%,2%,3%,8%
CN(C)C(CNC(=O)C1CCN(C(=O)/C=C/c2ccccc2)CC1)c1ccccc1 (stereo not drawn),u,x,x,2%,10%,3%,-15%,40%[activator]
CC(=O)c1c(C)[nH]c(C(=O)OCC(=O)C(C)(C)C)c1C,7%,5%,-0.5%,-2%,u,-10%,15%,44%[activator]
CSc1ccccc1C(=O)NC1CCCCC1,0%,2%,3.3%,1%,-14%,-2%,-14%,8%
Cc1cc(=O)[nH]c(N/N=C/c2c(C)nn(-c3ccccc3Cl)c2Cl)n1,u,x,x,x,11µM*,-1%,0%,u
Cn1c(-c2cccs2)nc2ccccc21,u,x,x,x,6%,-11%,-9%,49%[activator]
CCOc1cc(/C=N/NC(=O)CN2CCCCC2)ccc1OCc1ccc(Cl)cc1,u,-4%,-7.9%,-1%,1%,7%,-7%,-16%
CC(C)(C)C1CCC2(CC1)Nc1cccc3cccc(c13)N2,u,25µM*,-6.3%,8%,11%,-11%,8%,-27%
Cc1ccccc1-n1c(SCC(N)=O)nc2sc(-c3ccccc3)cc2c1=O,-6%,10%,-5.1%,8%,0%,5%,-5%,-18%
Cc1ccc(NCCC(=O)c2ccc(Cl)c(Cl)c2)cc1,-15%,u,-6.2%,-4%,30%[14.3 µM],-4%,6%,22%
COc1ccc(NC(=O)CSc2nc3c(c(=O)n2-c2ccccc2)SCC3)c(OC)c1,u,6%,-2.5%,-3%,-2%,3%,13%,-6%
Cc1ccc(CNC(=O)c2c[nH]c3ccc(S(=O)(=O)Nc4ccc(C(C)C)cc4)cc3c2=O)cc1,x,u,-4.8%,x,u,x,x,21%
O=C(O)c1c(NC(=O)N(CCO)Cc2ccccc2)sc2c1CCCC2,x,x,x,1%,x,-1%,-5%,-3%
Cc1ccc(-c2nsc(SCC(=O)NCc3ccc4c(c3)OCO4)n2)cc1,2%,-4%,-0.2%,-1%,4%,-14%,-3%,11%
COc1ccc(C(=O)OCC(=O)NC(Cc2ccccc2)C(C)=O)cc1S(=O)(=O)N1CCCC1 (stereo not drawn),-16%,x,x,x,-18%,-1%,8%,3%
Cc1ccccc1Cn1nnc(-c2ccc(C(=O)O)cc2)n1,u,x,x,x,0%,2%,21%,-1%

Next section:
Molecule,MARV entry inh,Cruzain inh noDet,Cruzain inh Det,NS1 function inh,LASV entry inh,SARS PLP yeast,RE007 growth inh,2A StopGo
Cn1cnc(S(=O)(=O)N2CCC(C(=O)Nc3ccc(F)cc3F)CC2)c1,x,2%,1.0%,x,4%[46.1 µM],x,x,-3%
O=C(O)c1ccc(COc2ccc3c4c(c(=O)oc3c2)CCC4)o1,u,0%,-4.1%,-1%,u,2%,2%,u
CCCOc1cccc(C(=O)NCCNC(=O)c2cnccn2)c1,2%[46.1 µM],x,x,-4%,0%[46.1 µM],-4%,2%,-4%
CC(/C=C/c1ccccc1F)=N\NC(=O)C(C)C,u,-14%,-4.8%,-5%,13%,1%,x,30%[activator]
CCOCCCNC(=O)c1ccc2c(c1)ncn2C1CCCC1,-1%,-5%,5.5%,-1%,20%,2%,3%,x
Cc1cccc(C2CC(c3ccc(Cl)cc3)Nc3nc(N)nn32)c1 (stereo not drawn),x,-1%,-1.3%,-11%,x,-1%,1%,-25%
NC(=O)CC(NC(=O)c1ccc(Br)cc1)c1ccc(NC2CCCCCCC2)c([N+](=O)[O-])c1 (stereo not drawn),x,x,x,25%,x,0%,-4%,-9%
CSC1=NC(C(Cl)(Cl)Cl)N=C(c2ccccc2)N1 (stereo not drawn),-14%[46.1 µM],x,x,x,-8%,-2%,19%,-17%
COc1ccc(S(=O)(=O)NCc2cn3c(C)csc3n2)cc1F,x,-6%,2.3%,-7%,x,9%,1%,0%
COC(=O)C1C(c2ccc(OC)c(OC)c2)NC(c2ccc(OC)c(OC)c2)C(C(=O)OC)S1(=O)=O (stereo not drawn),-1%,u,-3.1%,14%,-1%,8%,-3%,x
NS(=O)(=O)c1ccc(CCNC(=O)COC(=O)CCc2ccccc2)cc1,-14%[46.1 µM],x,x,x,-4%[46.1 µM],0%,10%,-11%
CN1C(=O)N(C)C(=O)C2(Cc3ccccc3N3CCCC32)C1=O (stereo not drawn),-4%[46.1 µM],x,x,6%,-1%,1%,10%,4%
Cc1[nH]c2ccccc2c1CCN,5%,x,x,x,20%,x,12%,-22%
Cn1cc(CCC(=O)N2CCCC(CCC(=O)NCc3ccccc3F)C2)cn1 (stereo not drawn),x,x,x,-4%,x,0%,23%,17%
Cc1cc(N(CCCl)CCCl)ccc1C=Cc1ccncn1,4µM*,x,x,x,u,x,-10%,-27%
